Assay outcomes as filed in PubChem BioAssay.
INS promoter inh: TRM-6 insulin promoter activity inhibition. TRM-6 cells (human fetal islet line), insulin promoter-eGFP reporter, imaging; reporter expression induced with tamoxifen. 130,000 compounds, 0.9% hits. AID 1273. inhibition, % at 2 µM;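 active = inhibition above the mean plus 3 SD, with well images judged a real hit on visual review, cut at about 60% in these data, passing the limit was not always enough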
HSV replic up: HSV replication enhancement; 220,000 compounds, 0.005% hits; AID 1956; HSV replication augmentation in cells, fold increase; maximum fold increase;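 active = peak rise of 1.5-fold or more in the series; tested in PC3 cells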;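 note: first round at 10 µM; read as green reporter fluorescence; hits show the peak of a series up to 25 µM; 1 = signal of infected wells without compound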
RGS16-Gao HTS: RGS16-Galphao interaction regulator (human). bead-based flow cytometry RGS16-Galphao binding, fluorescence; actives lie on both sides. binding response (% of control), % at 10 µM. O15492+P09471. 220,000 compounds, 0.38% hits;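 active = below 25% or above 175%, edge rows of some plates excepted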;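 note: Galphao activated by GDP with aluminum fluoride before binding; 100% = wells without compound and 0% = beads without RGS; some results beyond the cut were filed as inactive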
Target sequence (O15492 whole entry, looked up): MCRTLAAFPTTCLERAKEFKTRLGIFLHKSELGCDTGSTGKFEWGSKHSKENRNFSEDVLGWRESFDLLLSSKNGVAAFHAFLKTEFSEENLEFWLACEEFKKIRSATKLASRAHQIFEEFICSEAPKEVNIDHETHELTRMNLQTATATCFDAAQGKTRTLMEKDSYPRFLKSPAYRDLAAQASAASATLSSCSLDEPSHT
Target sequence (P09471 whole entry, looked up): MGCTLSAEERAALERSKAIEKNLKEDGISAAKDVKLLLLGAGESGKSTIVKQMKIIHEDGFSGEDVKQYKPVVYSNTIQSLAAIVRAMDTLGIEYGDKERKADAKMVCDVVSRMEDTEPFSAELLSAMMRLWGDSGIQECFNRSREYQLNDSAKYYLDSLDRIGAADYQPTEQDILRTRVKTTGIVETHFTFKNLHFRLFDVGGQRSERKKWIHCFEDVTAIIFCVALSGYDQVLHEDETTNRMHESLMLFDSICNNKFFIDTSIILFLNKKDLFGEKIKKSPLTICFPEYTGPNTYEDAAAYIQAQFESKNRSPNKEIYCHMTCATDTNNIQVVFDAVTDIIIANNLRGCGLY
PKD1 kinase inh: inhibitors of human PKD1 kinase. 200,000 compounds, 0.056% hits. PKD1 kinase fluorescence polarization assay. inhibition, %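 (about 10 µM by stock and volumes)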. Q15139;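 active = inhibition of 50% or more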;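 note: controls were vehicle for no effect and a reference inhibitor for full effect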
GALR2 agonist: activates the human galanin receptor 2; O43603; GALR2-expressing cells, agonist activation read-out; activation, %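 (tested at 5 µM)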; 140,000 compounds, 0.48% hits; AID 803;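 active = above mean plus 3 SD of all compounds, about 5% in these data, not always enough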;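 note: 0% = vehicle buffer wells and 100% = reference agonist at full effect; tested in CHO reporter cells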
Target sequence (O43603 whole entry, looked up): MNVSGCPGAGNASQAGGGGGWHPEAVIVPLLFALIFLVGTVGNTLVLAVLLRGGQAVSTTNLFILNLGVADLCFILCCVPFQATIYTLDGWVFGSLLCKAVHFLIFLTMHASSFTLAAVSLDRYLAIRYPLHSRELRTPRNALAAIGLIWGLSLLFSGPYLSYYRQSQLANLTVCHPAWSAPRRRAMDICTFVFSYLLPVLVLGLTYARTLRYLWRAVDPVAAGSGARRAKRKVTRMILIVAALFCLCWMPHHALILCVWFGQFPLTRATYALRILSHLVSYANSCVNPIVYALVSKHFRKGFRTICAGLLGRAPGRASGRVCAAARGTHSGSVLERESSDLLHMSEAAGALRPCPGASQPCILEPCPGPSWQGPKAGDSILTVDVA
INS promoter inh cell count: recorded beside INS promoter inh, whose call it bears; normalized cell count, %; measured here: cell count, toxicity; reference of the scale not given here;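 cells exposed to compound for 48 h; stained nuclei by imaging scaled within each plate; lower means fewer cells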
HSV replic up primary fold: recorded beside HSV replic up, whose call it bears; fold increase; compound at 10 µM; measured here: primary screen fold increase 10 uM; tested in PC3 cells;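 GFP signal in the first replicate; 1 = infected wells without compound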
* marks the source's active call; other numbers are inactive results. This is a random part of the collection. About 1.3% of those tested had a hit in this group.

Cc1nc2ccccc2n1CC(O)COCC1CC=CCC1 (stereo not drawn) was read as INS promoter inh -14.3, HSV replic up inactive, RGS16-Gao HTS 102.7, PKD1 kinase inh -2.9, GALR2 agonist -2.1, INS promoter inh cell count 106.6 and HSV replic up primary fold 1.
For CCc1ccc(C(=O)COC(=O)c2ccc(-c3nnc(-c4ccccc4)o3)cc2)cc1 the results were INS promoter inh 6.7, HSV replic up inactive, RGS16-Gao HTS 98.6, PKD1 kinase inh 6.5, GALR2 agonist 0.2, INS promoter inh cell count 178.9 and HSV replic up primary fold 0.92.
For Cc1ccsc1C1C(C#N)=C(N)N(N(C)C)C2=C1C(=O)CCC2 (stereo not drawn) the results were INS promoter inh 20.0, HSV replic up inactive, RGS16-Gao HTS 102.5, PKD1 kinase inh -3.0, INS promoter inh cell count 132.3 and HSV replic up primary fold 1.04.
For COc1cccc(N2CCN(C(=O)c3c(C)nn(-c4ccccc4)c3C)CC2)c1 the results were INS promoter inh -58.3, HSV replic up inactive, RGS16-Gao HTS 130.1, PKD1 kinase inh -3.2, INS promoter inh cell count 66.5 and HSV replic up primary fold 0.92.
CSc1ccc(/C=N/NC(=O)c2ccc(O)cc2)cc1 was read as INS promoter inh 6.1, HSV replic up inactive, RGS16-Gao HTS 103.7, PKD1 kinase inh 7.2, GALR2 agonist 0.5, INS promoter inh cell count 125.6 and HSV replic up primary fold 0.99.
Screening CCc1ccc2c(c1)c(N=NC1=NC(=O)CS1)c(O)n2CC returned INS promoter inh -6.7, HSV replic up inactive, RGS16-Gao HTS 100.1, PKD1 kinase inh 2.8, GALR2 agonist -2.4, INS promoter inh cell count 111.9 and HSV replic up primary fold 0.94.
`COc1ccc(S(=O)(=O)NCC2CCCN(C(=O)CC3CCCC3)C2)cc1` (stereo not drawn) gave HSV replic up inactive, RGS16-Gao HTS 120.4, PKD1 kinase inh -6.4 and HSV replic up primary fold 0.97.
`CC1CCCCN1CC(=O)Nc1ccc(N2CCCCCC2)cc1` (stereo not drawn) gave HSV replic up inactive, RGS16-Gao HTS 156.6, PKD1 kinase inh 1.8 and HSV replic up primary fold 0.95.
`Cn1c(Cl)nc2ccccc21` gave INS promoter inh 35.8, HSV replic up inactive, RGS16-Gao HTS 104.3, PKD1 kinase inh -2.6, GALR2 agonist -2.2, INS promoter inh cell count 167.1 and HSV replic up primary fold 1.04.
`O=C1COCCOCCOCCOCC(=O)NCCN1` gave INS promoter inh -2.6, HSV replic up inactive, RGS16-Gao HTS 110.2, PKD1 kinase inh 3.6, INS promoter inh cell count 95.0 and HSV replic up primary fold 0.95.
For Cc1[nH]c2ccccc2c1C(C[N+](=O)[O-])c1ccco1 (stereo not drawn) the results were HSV replic up inactive, RGS16-Gao HTS 90.0, PKD1 kinase inh -3.0 and HSV replic up primary fold 1.01.
O=C(c1cccc(Cl)c1)N1CCN(C2CCCCCC2)CC1 was read as INS promoter inh 51.6, HSV replic up inactive, RGS16-Gao HTS 103.2, PKD1 kinase inh -10.1, GALR2 agonist -1.9, INS promoter inh cell count 81.8 and HSV replic up primary fold 0.98.
For COc1ccc2cc(C3NC(=O)c4ccccc4N3)c(Cl)nc2c1 (stereo not drawn) the results were INS promoter inh 63.0, HSV replic up inactive, RGS16-Gao HTS 90.3, PKD1 kinase inh -3.4, INS promoter inh cell count 92.2 and HSV replic up primary fold 0.98.
COc1ccc(-c2noc(N(C)CC(=O)Nc3cccc(C(F)(F)F)c3)n2)cc1 was read as INS promoter inh 0.0, HSV replic up inactive, RGS16-Gao HTS 100.2, PKD1 kinase inh -2.0, GALR2 agonist -1.7, INS promoter inh cell count 102.6 and HSV replic up primary fold 0.85.
For OC(CNCc1ccc(Cl)cc1)(c1ccccc1)c1ccc(F)cc1 (stereo not drawn) the results were HSV replic up inactive, RGS16-Gao HTS 104.1, PKD1 kinase inh -6.0 and HSV replic up primary fold 0.76.
Cc1sc(-c2ccccn2)nc1OC(=O)c1ccc(Cl)c(Cl)c1 was read as INS promoter inh -47.8, HSV replic up inactive, RGS16-Gao HTS 112.4, PKD1 kinase inh -12.7, GALR2 agonist -1.1, INS promoter inh cell count 118.2 and HSV replic up primary fold 0.82.
COc1cccc2c3c(c(C)nc12)CC(C)O3 (stereo not drawn) was read as INS promoter inh 70.0, HSV replic up inactive, RGS16-Gao HTS 105.2, PKD1 kinase inh 2.3, GALR2 agonist -1.7, INS promoter inh cell count 115.7 and HSV replic up primary fold 0.83.
Screening CCCCN(C(=S)Nc1cccc(C)c1C)c1c(N)n(CCC)c(=O)[nH]c1=O returned HSV replic up inactive, RGS16-Gao HTS 99.7, PKD1 kinase inh -7.8 and HSV replic up primary fold 0.96.
Screening CC1Oc2ccccc2C=C1/C=C1/SC(N2CCOCC2)=NC1=O (stereo not drawn) returned INS promoter inh 13.3, HSV replic up inactive, RGS16-Gao HTS 101.3, PKD1 kinase inh 0.0, GALR2 agonist 0.1, INS promoter inh cell count 78.8 and HSV replic up primary fold 0.92.
`CC(C)n1cnnc1SCC(=O)Nc1ccc(Br)cc1F` gave HSV replic up inactive, RGS16-Gao HTS 103.1, PKD1 kinase inh -5.6 and HSV replic up primary fold 0.98.
Screening CCn1nnnc1SCC(=O)Nc1cc(OC)cc(OC)c1 returned INS promoter inh -10.0, HSV replic up inactive, RGS16-Gao HTS 109.4, PKD1 kinase inh -4.8, GALR2 agonist 1.2, INS promoter inh cell count 92.2 and HSV replic up primary fold 0.9.
COc1ccc(/C=N/NC(=O)C2CCN(c3ncc(C(F)(F)F)cc3Cl)CC2)cc1 was read as INS promoter inh -23.3, HSV replic up inactive, RGS16-Gao HTS 102.7, PKD1 kinase inh 0.7, GALR2 agonist -1.0, INS promoter inh cell count 128.1 and HSV replic up primary fold 0.93.
For COc1cc(OC)cc(C(=O)N2CCN(C3CCN(Cc4ccccc4)CC3)CC2)c1 the results were INS promoter inh -13.5, HSV replic up inactive, RGS16-Gao HTS 101.6, PKD1 kinase inh -3.6, GALR2 agonist -0.4, INS promoter inh cell count 99.2 and HSV replic up primary fold 0.97.
`Cc1cc(CSC(=N)N)c(CSC(=N)N)cc1C` gave HSV replic up inactive, RGS16-Gao HTS 103.1 and HSV replic up primary fold 1.03.
Screening O=C(O)C1Cc2ccccc2CN1C(=O)CSc1nnc2ccccn12 (stereo not drawn) returned INS promoter inh 26.7, HSV replic up inactive, RGS16-Gao HTS 100.4, PKD1 kinase inh -5.9, INS promoter inh cell count 130.8 and HSV replic up primary fold 0.93.
CCOC(=O)C1=NNC(C(=O)c2ccc(Cl)cc2)C1c1ccccc1 (stereo not drawn) was read as INS promoter inh -6.9, HSV replic up inactive, RGS16-Gao HTS 102.4, PKD1 kinase inh -16.5, GALR2 agonist 0.4, INS promoter inh cell count 141.5 and HSV replic up primary fold 0.99.
Screening O=C(Cn1c(O)c(/C=C2\C=Nc3ccccc32)sc1=O)N1CCOCC1 returned HSV replic up inactive, RGS16-Gao HTS 97.8, PKD1 kinase inh -7.5 and HSV replic up primary fold 0.96.
Screening O=C(Nc1ccccc1C(F)(F)F)c1ccccc1Br returned HSV replic up inactive, RGS16-Gao HTS 97.8, PKD1 kinase inh -9.2 and HSV replic up primary fold 0.92.
COc1ccc(N2CCN(C(=O)/C=C/c3ccco3)CC2)cc1 was read as HSV replic up inactive, RGS16-Gao HTS 103.8, PKD1 kinase inh -2.2 and HSV replic up primary fold 0.97.
Screening COc1ccc(-n2c(SCC(=O)N3CCc4ccccc43)nnc2-c2c[nH]c3ccccc23)cc1 returned INS promoter inh -26.8, RGS16-Gao HTS 98.0, PKD1 kinase inh -10.8, GALR2 agonist 0.7 and INS promoter inh cell count 103.2.
`CCN(CC(=O)N1CCc2ccccc2C1)S(=O)(=O)c1ccc2ccccc2c1` gave INS promoter inh 3.9, HSV replic up inactive, RGS16-Gao HTS 98.7, PKD1 kinase inh 1.0, GALR2 agonist -1.8, INS promoter inh cell count 99.5 and HSV replic up primary fold 1.
For CC1Cc2ccccc2N1c1ncnc(N)c1[N+](=O)[O-] (stereo not drawn) the results were HSV replic up inactive, RGS16-Gao HTS 117.7, PKD1 kinase inh 67.6* and HSV replic up primary fold 0.64.
For CCOC(=O)N1CCc2c(sc(N)c2C#N)C1 the results were HSV replic up inactive, RGS16-Gao HTS 102.6 and HSV replic up primary fold 0.92.
Screening CCCCn1c(CCNC(=O)c2cccs2)nc2ccccc21 returned INS promoter inh 0.0, HSV replic up inactive, RGS16-Gao HTS 102.7, PKD1 kinase inh 1.1, GALR2 agonist -0.9, INS promoter inh cell count 105.2 and HSV replic up primary fold 0.85.
Screening COc1cccc(C2=NOC(C(=O)Nc3cccnc3Cl)C2)c1 (stereo not drawn) returned HSV replic up inactive, RGS16-Gao HTS 99.9, PKD1 kinase inh -5.2 and HSV replic up primary fold 0.99.
Screening Cc1ccc(-n2c(C)cc(/C=N/NC(=O)CN(c3ccc(C)cc3C)S(C)(=O)=O)c2C)cc1 returned INS promoter inh 0.0, HSV replic up inactive, RGS16-Gao HTS 413.8, PKD1 kinase inh 1.9, GALR2 agonist -1.9, INS promoter inh cell count 85.6 and HSV replic up primary fold 1.05.
For CN(C)c1nc2sc3c(c2c(=O)n1C)CC(C)(C)OC3 the results were INS promoter inh 54.5, HSV replic up inactive, RGS16-Gao HTS 102.0, PKD1 kinase inh 0.3, GALR2 agonist 0.4, INS promoter inh cell count 114.7 and HSV replic up primary fold 0.97.
For c1ccc(CCC2=NCCn3cccc32)cc1 the results were INS promoter inh -72.7, HSV replic up inactive, RGS16-Gao HTS 99.2, PKD1 kinase inh 0.8, GALR2 agonist -1.6, INS promoter inh cell count 70.5 and HSV replic up primary fold 1.11.
For O=C(Cn1c(=O)c2c(ncn2Cc2ccccc2)n(Cc2ccccc2)c1=O)NC1CC1 the results were INS promoter inh -15.2, HSV replic up inactive, RGS16-Gao HTS 104.9, PKD1 kinase inh 4.5, GALR2 agonist -1.5, INS promoter inh cell count 103.8 and HSV replic up primary fold 1.17.
`CCOc1ccccc1NC(=O)C1CC2CCCC(C1)C2=O` (stereo not drawn) gave INS promoter inh -15.0, HSV replic up inactive, RGS16-Gao HTS 103.6, PKD1 kinase inh 2.8, GALR2 agonist -1.0, INS promoter inh cell count 121.1 and HSV replic up primary fold 0.95.
Screening CCC(C)Nc1nc(N)c([N+](=O)[O-])c(Nc2cc(OC)ccc2OC)n1 (stereo not drawn) returned HSV replic up inactive, RGS16-Gao HTS 111.7 and HSV replic up primary fold 0.65.
For CC(=O)Nc1cc(C(=O)OCc2cccc([N+](=O)[O-])c2)ccc1C the results were HSV replic up inactive, RGS16-Gao HTS 98.6, PKD1 kinase inh -4.9 and HSV replic up primary fold 0.91.
Screening COCC(=O)Nc1cccc(C(F)(F)F)c1 returned INS promoter inh -25.0, HSV replic up inactive, RGS16-Gao HTS 106.2, PKD1 kinase inh -9.0, GALR2 agonist -0.3, INS promoter inh cell count 123.2 and HSV replic up primary fold 0.95.
COC(=O)CN1C(=S)N(c2ccc(F)cc2)C(=O)C1CC(=O)Nc1ccc(F)cc1 (stereo not drawn) was read as HSV replic up inactive, RGS16-Gao HTS 103.7 and HSV replic up primary fold 0.78.
CCOC(=O)C1CCN(S(=O)(=O)c2cccc(-c3cn4cc(C)ccc4n3)c2)CC1 was read as INS promoter inh -21.1, HSV replic up inactive, RGS16-Gao HTS 102.1, PKD1 kinase inh 0.9, GALR2 agonist 0.5, INS promoter inh cell count 207.1 and HSV replic up primary fold 0.84.
`COc1cc(NS(=O)(=O)c2ccc(NC(=O)/C(=C\c3ccccc3OC)NC(=O)c3ccccc3)cc2)nc(OC)n1` gave INS promoter inh 8.3, HSV replic up inactive, RGS16-Gao HTS 102.2, PKD1 kinase inh -4.2, GALR2 agonist -2.7, INS promoter inh cell count 92.9 and HSV replic up primary fold 0.93.
Screening CC(C)(C)c1ccccc1NC(=S)NCc1ccccc1 returned HSV replic up inactive, RGS16-Gao HTS 107.6, PKD1 kinase inh -11.1, GALR2 agonist -1.0 and HSV replic up primary fold 0.94.

Not a retest: 3 of the compounds above.
CCOC(=O)C1CCN(S(=O)(=O)c2cccc(-c3cn4cc(C)ccc4n3)c2)CC1 was read as INS promoter inh -21.1, HSV replic up inactive, RGS16-Gao HTS 102.1, PKD1 kinase inh 0.9, GALR2 agonist 0.5, INS promoter inh cell count 207.1 and HSV replic up primary fold 0.84.
`COc1cc(NS(=O)(=O)c2ccc(NC(=O)/C(=C\c3ccccc3OC)NC(=O)c3ccccc3)cc2)nc(OC)n1` gave INS promoter inh 8.3, HSV replic up inactive, RGS16-Gao HTS 102.2, PKD1 kinase inh -4.2, GALR2 agonist -2.7, INS promoter inh cell count 92.9 and HSV replic up primary fold 0.93.
Screening CC(C)(C)c1ccccc1NC(=S)NCc1ccccc1 returned HSV replic up inactive, RGS16-Gao HTS 107.6, PKD1 kinase inh -11.1, GALR2 agonist -1.0 and HSV replic up primary fold 0.94.
